Screens (PubChem BioAssay)
StopGo RLuc – FMDV 2A StopGo reporter, Renilla signal; Potency, µM (titrated, usually from 57.5 µM), for the others: at the top dose signal change, negative = less light; AID 1745857; hit rate 0.32% among 120,000; HEK cells with a luciferase reporter of 2A StopGo recoding; active means well fitted falling curve with a large enough effect; inconclusive means small, poorly fitted or top-dose-only effect; inactive means no such curve, though single readings can be large or run the other way; further: nearly all actives have a fitted effect of over 55% in size; overnight with compound
2A firefly – lowers the firefly signal of an FMDV 2A StopGo reporter | HEK cells with a luciferase reporter of 2A StopGo recoding | Potency, µM (doses to about 57.5 µM), inactives show at the top dose signal change, negative = less light | hit rate 0.23% among 120,000 | AID 1745856; active = well fitted falling curve with a large enough effect; inconclusive = small, poorly fitted or top-dose-only effect; inactive = no such curve, though single readings can be large or run the other way; further: nearly all actives have a fitted effect of over 60% in size; overnight with compound
An asterisk follows results filed as active; u = inconclusive; & = joins results of further samples; [ ] = another dose, or the depositor's remark. On the % scale 0 is the no-effect control and ±100 the full control effect; potency means the concentration at half of the fitted maximal effect.

SMILES	StopGo RLuc	2A firefly
CCC1CCc2nc3sc(C(=O)Nc4ccc(C)cc4)c(N)c3cc2C1 (stereo not given)	-7%	36%[activator]
CCOc1ccc(-n2nnnc2CNC(=O)Nc2ccc(C)c(C)c2)cc1	51%[activator]	14%
O=C(Nc1cc(F)ccc1F)c1cc(C2CC2)nn1-c1ccccc1	13%	0%
CC(=O)Oc1ccc(C)cc1	-6%	-11%[11.5 µM]
CCC1CN(C(=O)N2CCC(C(=O)NCCCc3ccccc3)CC2)c2cc(C)ccc2O1 (stereo not given)	0%	-22%
CC(C)NC(=O)CON=C1c2ccccc2-c2ccccc21	23%	100%[activator]
CCN(CC)S(=O)(=O)c1ccc2c(c1)N(CC(=O)Nc1ccc(F)cc1)C(=O)CO2	26%	34%[activator]
C/C=C/C(=O)OCc1nc2c(c(=O)[nH]c(=O)n2CCCC)n1C	-11%	-11%
CCN(CC)c1nn2c(=O)c(C(=O)NCCc3cccc(C)c3)cnc2s1	-7%	-8%
Cc1ccc2nc(N(Cc3cccnc3)C(=O)c3ccc4c(c3)OCCO4)sc2c1	-12%	54%[activator]
Cc1ccc(-c2nc(CCNC(=O)C(=O)Nc3ccc(C)c(Cl)c3)cs2)cc1	1%	-14%
CCCCNS(=O)(=O)c1ccc2nc(-c3cccnc3)cc(C(=O)NCCCOCC)c2c1	3%	-2%
CC(=O)Nc1ccc(S(=O)(=O)N2CCC(c3nnc(-c4ccc(C)cc4)o3)CC2)cc1	41%[activator]	19%
Cc1nnc(N2CCC(C(=O)NCCc3ccccc3)CC2)c2nn(-c3ccccc3)c(C)c12	16%	5%
CCN(CC)Cc1ccccc1CNC(=O)c1cc2cccc(OC)c2oc1=O	-13%	152%[activator]
O=C(c1ccc(F)cc1)c1cn(Cc2ccccc2F)c2cc3c(cc2c1=O)OCCO3	9%	-22%
CCOCCCNC(=O)c1cc(Sc2cccc(Cl)c2)nc2ccccc12	52%[activator]	-19%
CC(C)Cn1nc(C(=O)N(C)c2cccc(C#N)c2)c2ccccc2c1=O	-6%	-3%
CCCn1nc(C(=O)Nc2ccc(Br)c(C(F)(F)F)c2)c2ccccc2c1=O	14%	0%
Cc1ccc(CNc2cc(C)nc3nc(-c4cccc(C)c4)nn23)cc1	3%	111%[activator]

One compound at a time, from the list above. Values in the order: StopGo RLuc, 2A firefly
Record of Cc1ccc(-c2nc(CCNC(=O)C(=O)Nc3ccc(C)c(Cl)c3)cs2)cc1 = 1%, -14%
Record of CC(=O)Nc1ccc(S(=O)(=O)N2CCC(c3nnc(-c4ccc(C)cc4)o3)CC2)cc1 = 41%[activator], 19%
Record of CCN(CC)S(=O)(=O)c1ccc2c(c1)N(CC(=O)Nc1ccc(F)cc1)C(=O)CO2 = 26%, 34%[activator]

3 entries picked at random from those above:
SMILES	StopGo RLuc	2A firefly
Cc1ccc(CNc2cc(C)nc3nc(-c4cccc(C)c4)nn23)cc1	3%	111%[activator]
CCN(CC)S(=O)(=O)c1ccc2c(c1)N(CC(=O)Nc1ccc(F)cc1)C(=O)CO2	26%	34%[activator]
CC(=O)Oc1ccc(C)cc1	-6%	-11%[11.5 µM]

An excerpt from above in order of formula weight, smallest number first:
SMILES	StopGo RLuc	2A firefly
CC(=O)Nc1ccc(S(=O)(=O)N2CCC(c3nnc(-c4ccc(C)cc4)o3)CC2)cc1	41%[activator]	19%
CCCn1nc(C(=O)Nc2ccc(Br)c(C(F)(F)F)c2)c2ccccc2c1=O	14%	0%
Cc1nnc(N2CCC(C(=O)NCCc3ccccc3)CC2)c2nn(-c3ccccc3)c(C)c12	16%	5%
CCCCNS(=O)(=O)c1ccc2nc(-c3cccnc3)cc(C(=O)NCCCOCC)c2c1	3%	-2%

(cont.)
SMILES	StopGo RLuc	2A firefly
Cn1c(SCC(=O)NCc2ccccc2CN2CCOCC2)nnc1-c1ccc(Cl)cc1	-4%	-9%
CCOC(=O)c1cc(-c2ccc(C)cc2)n(CCC(=O)Nc2ccc(OC)c(OC)c2)c1C	18%	3%
CCC(C(=O)Nc1sc(C)c(C)c1C#N)c1ccccc1 (stereo not given)	5%	-7%
O=C(CCCOC(=O)c1ccc([N+](=O)[O-])cc1)c1ccc(F)cc1	-9%	3%
CCOC(=O)c1c(C)[nH]c(C)c1S(=O)(=O)N(C)CC(=O)NCc1cccc(Br)c1	49%[activator]	-13%
O=c1c(O)c(-c2ccc(O)c(O)c2)oc2cc(O)cc(O)c12	18%	4%[11.5 µM]
Clc1snnc1CN1CCN(Cc2ccccc2)CC1	-13%	-9%
CCN(CC)CCCNc1oc(-c2ccc(OC)cc2)nc1C#N	-14%&-11%	-3%&23%
COc1cc(CC(=O)Nc2ccccc2-c2ccccc2)cc(OC)c1OC	-15%	-5%
CC1CCc2nc3ccc4ccccc4c3c(-c3ccccc3O)c2C1 (stereo not given)	3%	32%[activator]
CCOC(=O)c1ccc(NC(=O)CSc2nnc(-c3ccncc3)n2-c2ccccc2)cc1	-13%	-5%
Cc1cn2c(=O)cc(CSc3ccccc3)nc2s1	5%	175%[activator]
Cn1c(=O)c2c(nc(N3CCN(C(=O)Cc4ccccc4)CC3)n2Cc2ccccc2)n(C)c1=O	13%	10%
CN1C(=O)c2ccccc2Sc2ccc(NC(=O)N3CCN(c4ccc(F)cc4)CC3)cc21	u	u
COc1ccc2c(CNC3CCC(C)CC3)c(C(=O)O)n(Cc3ccc(F)cc3)c2c1 (stereo not given)	81%[activator]	-11%
CC(C)C[C@@H](NC(=O)Nc1cccc(Cl)c1)C(=O)O	-15%	6%
CCc1ccc(NC(=O)CCn2cnc3c2c(=O)n(C)c(=O)n3C)cc1	-7%	91%[activator]
C1NC2CC3CC1CC(C3)C2	11%	10%
Cn1nc(-c2ccc(C(=O)NC3CCCCC3)cc2)c2ccccc2c1=O	15%	19%
CCC(CC)C(=O)Nc1ccc(C)c(C)c1	-6%	12%
CCc1ccc(NS(=O)(=O)c2ccc3[nH]cc(C(=O)NCCCOC(C)C)c(=O)c3c2)cc1	103%[activator]	-4%
O=C(CSc1nc(-c2ccccc2F)nc2cc(=O)[nH]n12)Nc1cccc(C(F)(F)F)c1	u	-12%
COc1ccc(OC)c(CCNC(=O)c2cc3c(s2)-c2ccccc2OC3)c1	6%	16%
O=C(Nc1ccccc1)c1cc2ccc(O)cc2oc1=O	0%	210%[activator]
COc1ccc2nc(C)c(C(=O)Nc3ccc4ccccc4n3)cc2c1	-4%	20%
O=C(O)c1ccc(NC(=O)c2cc3ccccc3o2)cc1	-4%	108%[activator]
Cc1cc(SCC(=O)NC(C)C(C)C)nc2c(C)cccc12 (stereo not given)	0%	0%
CCOC(=O)c1c(NC(=O)COc2ccc3c(c2)OCO3)sc(C)c1C	-3%	6%
Cc1cccc(NC(=O)Cn2c(=O)n(CCc3ccccc3)c(=O)c3sc4ccccc4c32)c1	8%	42%[activator]
CC1(C)CS(=O)(=O)N(c2ccc(C(=O)Nc3ccc4c(c3)OCCO4)cc2)C1=O	9%	48%[activator]
O=C(COc1ccc2ccccc2c1)Nc1cccc2ncccc12	u	u
O=C(Nc1cccc(Cl)c1Cl)c1ccc2c(c1)N(Cc1cccc(Cl)c1)C(=O)c1ccccc1S2=O (stereo not given)	-6%	-12%
COc1cc(C2C3=C(CCCC3=O)OC3=C2C(=O)CCC3)ccc1OCc1ccccc1	19%	8%
O=C1CCSC2(C(=O)N(Cc3ccccc3)c3ccccc32)N1c1ccccc1 (stereo not given)	64%[activator]	9%
O=C(NCCc1ccc2c(c1)OCCO2)c1ccc(NC(=O)c2cccs2)cc1	19%	0%
COc1cc(-c2c(NC(=O)c3cccc([N+](=O)[O-])c3)oc3ccccc3c2=O)cc(OC)c1OC	49%[activator]	-9%
COC(=O)CC1c2cc(OC)c(OC)cc2CCN1Cc1nc(C(C)C)no1 (stereo not given)	-10%	-5%
Cc1ccc(C(=O)N2CCn3c4c(c5cc(C)ccc53)CCCC42)cc1 (stereo not given)	-11%	-6%
CCCn1c(=O)[nH]c(=O)c2c1nc(-c1ccc3ccccc3c1)n2CCN1CCOCC1	-4%	-2%
CCOc1ccc(CCNC(=O)CN2CCN(Cc3ccc(F)cc3Cl)C2=O)cc1OCC	6%	-6%
Cn1c(=O)c2c(nc(Br)n2Cc2ccc(Br)cc2)n(C)c1=O	-3%	-1%
COc1ccc(NC(=O)CSc2ncc(-c3ccc(F)cc3)o2)cc1OC	-17%	3%
CC1(c2ccccc2)CC(C)(C)N(C(=O)c2cccc(Cl)c2)c2ccccc21 (stereo not given)	0%	0%
CCSc1nc2n(n1)C(c1cccnc1)C1=C(CC(C)(C)CC1=O)N2 (stereo not given)	1%	5%
COc1ccccc1NC(=O)c1cn(C)c2ccccc12	2%	47%[activator]
Clc1ccc2c(c1)Nc1ccccc1S2	-4%	-7%[11.5 µM]
Cc1ccc(/C(O)=C2\C(=O)C(=O)N(c3nc4ccccc4s3)C2c2ccc(O)cc2)cc1 (stereo not given)	9%	107%[activator]
CSc1ccc(CNCc2c(C(=O)O)c(C)n(Cc3ccc(F)cc3Cl)c2C)cc1	6%	-23%
CCOC(=O)CCc1c(C)nc2c(c(C)nn2-c2ccc(C)cc2)c1C	-4%	-4%
O=C(Nc1cccc2cnccc12)c1cccc(S(=O)(=O)N2CCCC2)c1	u	u
CC(C)n1nc(C(=O)NCc2cccc(Cl)c2)c2ccccc2c1=O	-22%	-30%
Cc1cc(C)cc(NS(=O)(=O)c2c(C)nc3scc(C)n3c2=O)c1	171%[activator]	-16%
O=C(c1cc(-c2ccc(Br)cc2)n[nH]1)N1CCN(S(=O)(=O)c2ccc(Br)cc2)CC1	-9%	-5%
Cc1ccc(CNC(=O)c2cccc(NC(=O)N3CCSc4ncccc43)c2)cc1	-2%	-5%
CCCc1nn2c(=O)cc(COC(=O)CNC(=O)COc3ccc(C)cc3)nc2s1	12%	7%
COc1ccc(-c2coc3c(C)c(O)ccc3c2=O)cc1	-3%	169%[activator]
Cc1ccc(C(=O)Nc2cccc(-c3nc4ccccc4o3)c2)c(Cl)c1	4%	-3%
O=C(CC1CCCCC1)NCc1cccnc1	3%	0%
COc1cc(CN(C(=O)c2ccc(OC(C)C)cc2)c2ccccn2)cc(OC)c1OC	10µM*	u
O=C(CCC(=O)c1ccc(F)cc1)OCc1ccc([N+](=O)[O-])cc1	-4%	-1%
New compounds follow
SMILES	StopGo RLuc	2A firefly
CCc1nn(-c2ccccc2)c2nc(-c3ccc(O)cc3)c3cc(OC)c(OC)cc3c12	0%	-6%
COc1ccc(C2C3=C(CC(C)(C)CC3=O)Nc3ccccc3N2C(=O)C(C)C)c(OC)c1 (stereo not given)	11%	10%
Cn1cc(-c2cc3n(n2)CCC(=O)N3CCCC(=O)NCc2ccccc2Cl)c2ccccc21	4%	6%
CCOC(=O)c1c(-c2ccc(C)cc2)csc1NC(=O)c1cc(=O)c2cc(C)ccc2o1	-8%	8%
O=C(COc1ncnc2sc3c(c12)CCCC3)N1CCc2ccccc2C1	3%	3%
NC(=O)c1ccsc1NC(=O)COC(=O)COc1ccc2c(c1)CCC2	-14%	-3%
CCOc1ccc(-n2ccnc2SCC(=O)Nc2ccc3c(c2)OCO3)cc1	-9%	-30%
COc1cccc(NC(=O)/C(C#N)=C\c2cn(Cc3ccc(C)cc3)c3ccccc23)c1	-7%	-9%
CCCc1nc2ccccc2c(C(=O)OCC(=O)NC2CCCC2)c1CC	-21%	u
Cc1ccc(NC(=O)C2CCN(S(=O)(=O)c3ccc4[nH]c5c(c4c3)CCCCC5)CC2)cc1	8%	0%
CCOCCCNC(=O)c1ccoc1	5%	19%
CC12CCC(O)CC1CCC1[C@@H]2CCC2(C)C(C3=CC(=O)OC3)C(O)CC12O (stereo not given in full)	u	u
Cc1ccc(C2C(=O)N(C3CCCCCC3)CC(=O)N2C(C)C)cc1 (stereo not given)	41%[activator]	-11%
CCCCCCCNC(=O)CCC(=O)NCCC(C)C	5%	8%
Cc1cccc(/C=C/C(=O)c2cc3ccccc3oc2=O)c1	46%[activator]	25%
COc1cccc(CCNC(=O)c2cnc3sc(N4CCCCCC4)nn3c2=O)c1	-3%	-10%
CC(C)(C)c1ccc(C(=O)Nc2ccccc2C(=O)OCc2cc(=O)n3ccsc3n2)cc1	-12%	53%[activator]
CCOC(=O)c1cccc(NC(=O)CS(=O)(=O)Cc2nc(-c3ccc(C)cc3)oc2C)c1	0%	-2%
COc1ccc(Cl)cc1NC(=O)Cn1ccn(-c2cc(C)cc(C)c2)c(=O)c1=O	-4%	0%
COc1ccc(C(=O)c2ccccc2)c(OS(=O)(=O)c2ccc3oc(=O)ccc3c2)c1	30%	-3%
O=C(CCNC(=O)c1ccc(Cl)cc1)NCc1ccc(C(F)(F)F)cc1	6%	-4%
CC(C)CCNC(=O)NC(=O)COC(=O)Cc1c[nH]c2ccccc12	-24%	-26%
CC(C)C(C)NC(=O)COc1ccc(-n2cnnn2)cc1 (stereo not given)	5%	14%
CCCN1C(=O)NC(c2ccc(Br)s2)C(C(=O)OC)=C1C (stereo not given)	15%	20%
CC(=O)c1ccc(NC(=O)COc2nc(C(C)C)c3c(c2C#N)CCCC3)cc1	7%	103%[activator]
O=C(Cn1cc(S(=O)(=O)Cc2cccc(Cl)c2)c2ccccc21)Nc1ccccc1C(F)(F)F	14%	-16%
CC1CCC2(CC1)N=C(c1ccccc1)C(=O)N2CC(=O)Nc1ccc(F)c(Cl)c1 (stereo not given)	-11%	0%
Cc1ccc(S(=O)(=O)N2CCN(C(C(=O)NC3CC3)c3ccccc3)CC2)c(C)c1 (stereo not given)	40%[activator]	33%
CCN(CC)CCNC(=O)c1cc2c(=O)n(C)c3cc(Cl)ccc3c2s1	-12%	14%
Cc1ccc2c(n1)sc1c(=O)n(-c3cccc(C(=O)OCC(C)C)c3)nnc12	2%	23%
CCN(C(=O)C1CCC1)C1CC1	0%	-4%
CC(=O)c1ccc(NC(=O)CSc2nc3ccccc3o2)cc1	-4%	0%

The list is partial, so the mix of outcomes need not match the whole.
